# From PubChem
# Mtb bLac sens = beta-lactam sensitization of Mtb H37Rv; inhibition, % at 25 µM; M. tuberculosis H37Rv growth with meropenem, percent inhibition; hits of this screen are not shown here; actives 0.27% (n = 330,000);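 active means about 74% or more and at least 40 points above the plate without the antibiotic, then above 30% in a dose series; inconclusive means first-round hits that could not be retested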;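 further: growth measured after seven days incubation then overnight dye step; 0% = bacteria only wells and 100% = bacteria with antibiotic; twin plates without the antibiotic show which effects depend on it; some results filed as inactive read as strong as hits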
# RecA splice inh = Mtb RecA intein splicing inhibition; P9WHJ3; cell-free RecA intein splicing, fluorescence; inhibition, %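 (about 9 µM by stock and volumes)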; actives 0.75% (n = 290,000); AID 2221; in the data active means inhibition above about 30%; inconclusive means no clear call, values can overlap the other calls;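 further: 0% = vehicle wells and 100% = reference inhibitor control wells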
# Target sequence (P9WHJ3 whole entry, looked up, canonical isoform): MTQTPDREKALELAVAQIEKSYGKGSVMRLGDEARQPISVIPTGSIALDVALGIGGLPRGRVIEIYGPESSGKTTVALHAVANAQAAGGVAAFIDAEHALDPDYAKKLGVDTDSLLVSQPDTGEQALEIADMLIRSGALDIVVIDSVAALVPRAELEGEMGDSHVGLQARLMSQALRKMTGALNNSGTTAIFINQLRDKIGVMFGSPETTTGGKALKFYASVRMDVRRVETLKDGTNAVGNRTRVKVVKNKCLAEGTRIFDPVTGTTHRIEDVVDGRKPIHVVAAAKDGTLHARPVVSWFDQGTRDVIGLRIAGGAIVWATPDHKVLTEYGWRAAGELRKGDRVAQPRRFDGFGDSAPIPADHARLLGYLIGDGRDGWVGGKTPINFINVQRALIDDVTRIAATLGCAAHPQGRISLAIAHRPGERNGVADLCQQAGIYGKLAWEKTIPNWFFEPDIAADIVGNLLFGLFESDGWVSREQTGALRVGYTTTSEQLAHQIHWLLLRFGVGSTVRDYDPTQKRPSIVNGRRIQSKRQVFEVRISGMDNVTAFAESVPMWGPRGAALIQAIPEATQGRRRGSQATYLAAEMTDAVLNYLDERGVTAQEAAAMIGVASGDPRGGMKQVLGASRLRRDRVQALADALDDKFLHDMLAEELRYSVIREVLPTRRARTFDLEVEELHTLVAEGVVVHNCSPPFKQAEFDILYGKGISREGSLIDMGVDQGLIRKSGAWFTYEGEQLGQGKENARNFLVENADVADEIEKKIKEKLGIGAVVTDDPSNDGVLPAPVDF
# Arbovirus anti = blocks arbovirus infection; arbovirus infection cell-based antiviral screen; inhibition, % at 10 µM; actives 0.37% (n = 200,000); AID 1251;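 active means inhibition from about 30%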;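 further: bluetongue infection of BSR cells; cell survival read as ATP light after 72 h; 0% = infected wells without compound and 100% = uninfected wells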
# YopH PTP inh = inhibitors of Yersinia enterocolitica YopH tyrosine phosphatase; inhibition, %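 (about 10 µM by stock and volumes)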; actives 0.16% (n = 140,000); fluorescence Ex485/Em525;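 active means inhibition of 50% or more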;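 further: controls were vehicle for no effect and minimum signal wells for full effect; inactives centre near -20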
# Mtb H37Rv = M. tuberculosis H37Rv growth inhibitors, H37Rv strain (AID 1626); M. tuberculosis H37Rv growth inhibition; higher % means a stronger effect; inhibition, % at 10 µM; hits with a dose series show IC50 in µM; actives 0.95% (n = 220,000);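 active means confirmed in a dose series; inconclusive means inhibition above 80% but not taken into the dose series; inactive means below 80% or under 30% at every dose of the series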;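 further: bacteria incubated seven days before Alamar blue readout; 0% = bacteria only wells and 100% = bacteria with antibiotic wells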
# Arbovirus anti repeat = recorded beside Arbovirus anti, whose call it bears; inhibition, %; measured here: 10K subset replicate screen; many hits read low in the repeat;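 first of two repeat runs on a subset; 0% = infected and 100% = uninfected wells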
# Starred values were filed as active, the others as inactive; ? = inconclusive; / = not tested or not shown. A portion of the library; count on the stated rates, not on these rows.
SMILES,Mtb bLac sens,RecA splice inh,Arbovirus anti,YopH PTP inh,Mtb H37Rv,others
Cn1c(=O)c2c(nc(CN3CCOCC3)n2CCCc2ccccc2)n(C)c1=O,-5,3.9,7,-16,-7%,
CSCCC(N=Cc1c(O)n(-c2ccc(Br)cc2)c(=O)[nH]c1=O)C(=O)OC(C)(C)C (stereo unspecified),4,0.8,0,-13,-7%,
O=C(CC1(O)C(=O)c2ccccc2C1=O)c1ccccc1,5,/,-7,-24,3%,
CCOC(=O)c1c(C)n(C)c2ccc(OCC(O)Cn3nc(C)cc3C)cc12 (stereo unspecified),6,-1.1,-12,-37,5%,
C/C(=N/NS(=O)(=O)c1ccc(C)cc1)c1cccc(NC(=O)c2cccc(Cl)c2)c1,0,-3.1,2,-41,-2%,
COC(=O)CC1=C(C(=O)OC)C(c2cc(OC)c(OC)cc2OC)C(C#N)=C(N)O1 (stereo unspecified),-6,-0.8,-2,-32,-7%,
CC(=O)c1cn(C2OC(CO)C3OC(C)(C)OC32)c(=O)n(C)c1=O (stereo unspecified),13,-0.1,/,/,/,
Cc1ccc(NC(=O)NC(=O)N(c2ccccc2)S(C)(=O)=O)cc1,4,1.3,18,-42,-3%,
COc1ccc(-c2nn(-c3ccccc3)cc2/C=N/NC(=O)c2ccc3c(c2)OCO3)cc1,18,5.0,-21,-9,/,
COc1ccc(CN2CCN(c3ccccc3OC)CC2)cc1OC,-6,1.3,/,/,/,
CCn1c(COc2cccc(C)c2)nnc1SCC(=O)NC1CCCC1,-10,-4.6,/,/,/,
O=C(COC(=O)C12CC3CC(CC(O)(C3)C1)C2)N1CCN(S(=O)(=O)c2ccc(Cl)cc2)CC1,-8,1.5,13,-1,-3%,
Cc1ccc(S(=O)(=O)N/N=C\c2cn(CC(N)=O)c3ccccc23)cc1,3,0.5,/,/,/,
COc1ccccc1OCC(=O)Nn1c(=S)[nH]c2ncccc2c1=O,-1,1.6,-1,-33,-2%,
O=S(=O)(c1ccc(Cl)c(NC(=S)Nc2ccccc2N2CCOCC2)c1)N1CCOCC1,-3,0.1,6,-13,1%,
CSc1ncccc1C(=O)Nc1ncc(C)s1,4,-0.4,/,/,/,
O=C(N/N=C/c1cccc(O)c1)c1ccc(COc2ccc3c(c2)CCC3)o1,1,-7.3,-6,-10,-6%,
COC(=O)C1CCN(C(=O)CN2C(=O)NC(CCc3ccccc3)C2=O)CC1 (stereo unspecified),-14,3.1,5,-18,-4%,
COc1ccc(C[C@@H]2CN3C(=NC[C@@H]3C)N2C[C@H](C)NC(=O)c2ccc(C)c(Br)c2)cc1,-13,0.3,14,/,8%,
CCOc1cc(C(=O)Nc2cnccn2)cc(OCC)c1OCC,/,-0.5,-13,31,-6%,
CC1=NN=C(c2ccccc2)C(c2c[nH]c3ccccc23)N1O (stereo unspecified),-10,-1.8,-8,-33,-9%,
COc1cccc(CNC(=O)CCC2CCCN(C(=O)C3=CC(=O)CC(C)(C)O3)C2)c1 (stereo unspecified),0,-1.6,0,/,-10%,
CC(C)CN(CC(C)C)CC(O)COc1ccccc1Br (stereo unspecified),0,-0.2,-5,-30,7%,
CC1(C(=O)N2CCN(c3ccc([N+](=O)[O-])cc3)CC2)CC1(Cl)Cl (stereo unspecified),0,2.4,/,/,/,
Cc1ccc(OCC(=O)NC(=S)Nc2ccc(Br)c(C)n2)cc1,85,-0.6,4,-29,?,
Cn1c(C2=C(O)CN(Cc3ccccc3)C2=N)nc2ccccc21,-4,1.1,/,/,-6%,
O=C(NCC(=O)N(c1cccnc1)C(C(=O)NC1CCCC1)c1ccccc1F)c1ccco1 (stereo unspecified),-14,-3.3,/,/,/,
CCCc1[nH]nc2c1C(c1ccc(OC(=O)N3CCOCC3)c(OC)c1)C(C#N)=C(N)O2 (stereo unspecified),3,42*,0,-45,-11%,
CNC(=S)Nc1ccc(C23CC4CC(CC(C4)C2)C3)cc1,86,8.4,-34,-33,49%,
Cc1ccc(-c2nn(-c3ccc(F)cc3)cc2C(=O)N(C)CC(=O)Nc2ccc(N3CCOCC3)cc2)cc1,-13,1.0,/,/,/,
Cc1ccc(C(=O)/C=C/c2ccco2)c(O)c1,10,0.1,-4,-40,-2%,
COc1ccc(/C=C2\SC(=O)N(CCC(=O)N3CCCCC3CCO)C2=O)cc1 (stereo unspecified),1,6.3,/,/,/,
CCn1c(SCc2nc3ccccc3nc2C)nnc1-c1cccs1,-3,3.6,5,-37,0%,
COC(CSc1nc(N)c2c3c(sc2n1)CN(C)CC3)OC,-11,-2.3,/,/,/,
CCN1CCN(c2nc(-c3cccs3)nc3ccccc23)CC1,1,-2.5,-23,-14,11%,
CSc1nc(Cl)c(Cc2ccc(OC(C)C)cc2)c(N2CCOCC2)n1,36,5.1,0,-23,2%,
Cc1ccccc1OCCNc1cc(N2CCNCC2)ccc1[N+](=O)[O-],94,1.0,-37,/,31%,
O=C(Nc1ccc(Cl)cc1)c1ccc2c(c1)OCO2,-9,1.6,0,-25,-6%,
O=C(NCCCN1CCC(Cc2ccccc2)CC1)C1CC(=O)N(C2CCCC2)C1 (stereo unspecified),-7,0.3,-6,-20,7%,Arbovirus anti repeat=-3
CCOC(=O)C1(CCc2ccccc2)CCN(Cc2cc(OC)c(OC)cc2OC)CC1,4,-1.8,/,/,/,
CCc1cc2c3c(c1)C(C)CC(C)(C)N3C(=O)C2=O (stereo unspecified),10,0.2,-36,22,13%,
COc1cccc2c1C(=O)c1c(O)c3c(c(O)c1C2=O)C[C@@](O)(C(=O)CO)C[C@@H]3O[C@H]1C[C@H](N)[C@H](O)[C@H](C)O1,97,-7.8,-27,43,13µM*,
O=C(CSc1nnc(-c2ccncc2)o1)NCc1ccccc1,5,/,-6,-24,-4%,
O=C(O)/C=C/c1cn(Cc2ccccc2)nc1-c1ccc(Cl)cc1,-2,16,2,/,5%,
COc1ccc(C(CNS(=O)(=O)c2ccc(C)cc2)N2CCN(C)CC2)cc1 (stereo unspecified),-13,0.5,/,/,/,
CCn1c(COc2cccc3cccnc23)nnc1SCC(=O)OC,-1,0.4,9,/,-5%,
Cc1cccc(-n2nc(C(=O)Nc3ccccc3)n3c(=O)cc(-c4ccccc4)nc23)c1,-13,-0.9,-21,-10,-9%,
O=C(NC1CC2CCCC(C1)N2S(=O)(=O)c1ccccc1)c1ccccc1 (stereo unspecified),-3,5.3,11,-43,-9%,
FC(F)Oc1ccc(/C=N/NC(=S)Nc2cc(C(F)(F)F)ccc2Cl)cc1,5,-1.1,0,-25,-3%,
COc1ccc(CCNC(=O)c2nn(C)c3c2CS(=O)(=O)c2ccccc2-3)c(OC)c1,4,-1.6,/,/,/,
CN(NC(=O)COc1ccccc1)C1=NS(=O)(=O)c2ccccc21,3,1.4,-2,/,-4%,
O=C(O)CN(Cc1ccccc1)S(=O)(=O)c1ccc2c(c1)OCCO2,-1,2.8,-1,/,-3%,
O=C(CCC(=O)c1cccs1)NNC(=O)c1ccccc1O,-6,-2.1,/,/,/,
COc1ccc(N2CCCC2)c(NC(=O)COc2ccccc2)c1,4,0.4,/,/,/,
Cc1onc(-c2ccccc2)c1C(=O)Nc1ccc2c(c1)OCCO2,1,0.6,2,-18,-6%,Arbovirus anti repeat=-1
CCn1c(SCC(=O)Nc2ccccc2OC)nc(O)cc1=O,2,-1.2,/,/,0%,
Cc1ccc(S(=O)(=O)NCc2ccccc2)cc1C(=O)N1CC(C)CC(C)C1 (stereo unspecified),-12,1.2,/,/,/,
C/C(=N\NC(=O)CN1CCN(c2ccc(F)cc2)CC1)c1ccco1,3,4.3,/,/,/,
N#Cc1c2c(c(-c3ccccc3)[nH]c1=O)CCCC2,/,-0.1,12,-26,-6%,
CCOC(=O)c1ccc2c(c1)nc(-c1ccc(F)cc1)c1nccn12,1,/,-5,-8,1%,

# Continued; the last 4 above are carried over.
SMILES,Mtb bLac sens,RecA splice inh,Arbovirus anti,YopH PTP inh,Mtb H37Rv,others
Cc1ccc(S(=O)(=O)NCc2ccccc2)cc1C(=O)N1CC(C)CC(C)C1 (stereo unspecified),-12,1.2,/,/,/,
C/C(=N\NC(=O)CN1CCN(c2ccc(F)cc2)CC1)c1ccco1,3,4.3,/,/,/,
N#Cc1c2c(c(-c3ccccc3)[nH]c1=O)CCCC2,/,-0.1,12,-26,-6%,
CCOC(=O)c1ccc2c(c1)nc(-c1ccc(F)cc1)c1nccn12,1,/,-5,-8,1%,
COc1cc(S(=O)(=O)N2CCN=C2c2ccccc2)c(OC)cc1Cl,-5,1.2,/,/,/,
CCCC(C)n1[nH]c(=O)cc1N (stereo unspecified),0,1.2,2,17,-11%,
CCOc1ccccc1N1CCN(Cc2c(C)n(C)n(-c3ccccc3)c2=O)CC1,2,2.4,2,/,1%,
CN(C#N)c1nc(N2CCOCC2)nc(N2CCOCC2)n1,9,2.3,/,-10,-8%,
CCOC(=O)c1sc(NC(=O)CCSC)nc1C,-8,-0.2,-6,-36,-3%,
FC(F)(F)c1ccc(CN2C[C@@H]3C(c4ccc(C(F)(F)F)cc4)C4(c5cccnc5)CC3(C4)[C@H]2c2ccccc2)cc1 (stereo partly specified),-1,7.3,/,/,9%,
Cc1cccc(C)c1OCC(=O)Nn1c(COc2ccccc2)nc2ccccc2c1=O,-1,4.1,-6,3,-7%,
Cc1ccc(C(=O)O)cc1N1C(=O)CCCC1=O,-3,1.2,4,/,0%,
CCOc1cccc(/C=C2/NC(=O)N(CC(=O)Nc3cccc(C)c3)C2=O)c1O,-8,-2.0,-3,/,-4%,
CC(C)C[C@@]12C(=O)N(c3cccc(Br)c3)C(=O)N1[C@H](c1ccc(F)cc1)[C@@H]1C(=O)N(C3CCCCC3)C(=O)[C@@H]12,-2,4.5,/,/,/,
Cc1ccccc1C(O)c1cccnc1 (stereo unspecified),-5,0.3,-1,-24,-10%,
C/[N+]([O-])=C/c1c(OCc2ccc(Cl)cc2Cl)ccc2ccccc12,-2,-1.7,-9,/,11%,
CC1(C)Cc2c(cnn2-c2ccc(F)cc2)C(NC(=O)c2cnccn2)C1 (stereo unspecified),-5,1.3,/,/,/,
CC(=O)c1cccc(OCC(=O)N(C)CC(=O)Nc2ccc(F)cc2)c1,5,1.4,/,/,/,
N#Cc1c[nH]n2c(=O)c3c(nc12)CCCC3,7,-0.1,9,-30,/,
Cc1ccc(C)c(Nc2cc(C)nc3ncnn23)c1,-2,-2.7,/,/,/,
Cc1cc(NC(=O)CSc2nccn2-c2ccc(Cl)cc2)no1,-12,1.8,2,3,0%,
O=C(CCCN1C(=O)/C(=C/c2ccccc2Cl)SC1=S)NCCCN1CCOCC1,?,6.9,/,/,/,
Cc1ccc(S(=O)(=O)NCc2ccc3c(c2)cc(C)n3C)cc1,5,3.6,1,-35,46%,
Cc1nnc(SCC(=O)N2CC(=O)Nc3ccccc32)n1Cc1ccccc1,2,1.1,-4,17,-4%,

# Three compounds from above, sorted by molar mass, ascending:
SMILES,Mtb bLac sens,RecA splice inh,Arbovirus anti,YopH PTP inh,Mtb H37Rv,others
CCOC(=O)c1sc(NC(=O)CCSC)nc1C,-8,-0.2,-6,-36,-3%,
CC(=O)c1cccc(OCC(=O)N(C)CC(=O)Nc2ccc(F)cc2)c1,5,1.4,/,/,/,
COc1cc(S(=O)(=O)N2CCN=C2c2ccccc2)c(OC)cc1Cl,-5,1.2,/,/,/,

# (continued)
SMILES,Mtb bLac sens,RecA splice inh,Arbovirus anti,YopH PTP inh,Mtb H37Rv,others
O=C(NCCNc1ccc([N+](=O)[O-])cc1C(F)(F)F)c1cccc(F)c1,-3,-2.3,3,-24,33%,
Cc1c(C(=O)N2CC[C@@H](N3CCC(O)CC3)[C@H](O)C2)[nH]c2ccc(Cl)cc12,-3,-1.3,/,/,/,
CC(C)NS(=O)(=O)c1ccc(CCC(=O)NCc2ccc3c(c2)OCO3)cc1,-5,-1.3,-6,-7,-2%,
O=C(NCCO)/C(=C\c1ccco1)NC(=O)c1cccs1,4,-2.2,3,/,8%,
COc1ccc(NC(=O)c2oc3ccccc3c2NC(=O)c2ccco2)cc1,-1,1.5,-6,8,-6%,
Cc1c(Cc2ccccc2)sc(NC(=O)C(C)(C)C)c1C(N)=O,-4,1.5,3,/,4%,
CC1(c2nnc(-c3cccc(Cl)c3)o2)CC(c2ccccc2)=NO1 (stereo unspecified),-5,5.8,/,/,-2%,
O=c1oc2ccccc2cc1C1=Nn2c(nnc2-c2cccnc2)SC1,-1,-1.2,2,8,-7%,
Cc1ccc(C(C)NC(=O)c2ccncc2)c(C)c1 (stereo unspecified),-7,1.5,/,/,/,
COc1ccc(S(=O)(=O)N2CCOC2CNC(=O)C(=O)NCCc2ccc(OC)c(OC)c2)cc1 (stereo unspecified),1,1.1,4,-22,5%,
O=C(CSc1n[nH]c(=O)[nH]c1=O)N/N=C/c1ccccc1,-3,-0.5,-2,-26,15%,
